Source: PubChem
MenB inh – inhibitors of Mycobacterium tuberculosis MenB enzyme | MenB enzyme assay, absorbance read-out; some hits fall short of the stated cut | inhibition, %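 (about 12 µg/mL by stock and volumes)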 | 0.43% of 100,000 active;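 active = mean of two replicates above 30%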;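 note: 0% = no compound and 100% = wells with inactive enzyme; the first replicate is given; strong numbers were not always called active; inactives centre near -10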
Target sequence (P9WNP5 whole entry, looked up): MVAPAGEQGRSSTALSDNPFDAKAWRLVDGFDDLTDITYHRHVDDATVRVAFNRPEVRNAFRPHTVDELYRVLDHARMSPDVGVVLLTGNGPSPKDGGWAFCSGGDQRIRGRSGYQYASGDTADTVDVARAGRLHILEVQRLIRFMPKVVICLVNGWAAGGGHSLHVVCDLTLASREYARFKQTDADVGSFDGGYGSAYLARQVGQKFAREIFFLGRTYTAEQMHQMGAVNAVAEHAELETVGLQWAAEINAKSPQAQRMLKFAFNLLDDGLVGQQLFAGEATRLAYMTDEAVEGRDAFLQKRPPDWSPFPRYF
Mtb MbtI inh – inhibitors of Mycobacterium tuberculosis siderophore enzyme MbtI | P9WFX0 | purified MbtI enzyme, fluorescence intensity read-out | inhibition, %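 (about 17 µg/mL by stock and volumes)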 | 0.89% of 100,000 active | AID 493033;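 active = above 50% in both replicates, above 80% if mildly self-fluorescent; inactive = the rest, strongly fluorescent compounds included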;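 note: 0% = mean of negative and 100% = mean of positive controls; one replicate is shown; some compounds called inactive have numbers as strong as hits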
Target sequence (P9WFX0 whole entry, looked up): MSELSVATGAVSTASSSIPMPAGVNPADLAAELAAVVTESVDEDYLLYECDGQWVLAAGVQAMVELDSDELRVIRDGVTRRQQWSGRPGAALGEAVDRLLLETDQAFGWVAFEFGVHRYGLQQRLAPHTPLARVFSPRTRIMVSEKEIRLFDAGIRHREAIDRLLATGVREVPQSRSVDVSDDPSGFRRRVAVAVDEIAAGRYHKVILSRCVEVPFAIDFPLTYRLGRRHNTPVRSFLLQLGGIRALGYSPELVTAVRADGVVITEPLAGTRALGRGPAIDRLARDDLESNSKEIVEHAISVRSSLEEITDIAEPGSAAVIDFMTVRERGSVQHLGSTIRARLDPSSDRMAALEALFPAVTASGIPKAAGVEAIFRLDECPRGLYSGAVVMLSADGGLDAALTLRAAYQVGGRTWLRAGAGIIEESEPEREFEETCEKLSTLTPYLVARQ
Polio RdRp inh – inhibitors of poliovirus RNA polymerase binding and polymerization; AID 588519; 0.66% of 150,000 active; % elongation, % (compound at 16.7 µg/mL); poliovirus polymerase elongation, fluorescence polarization; active compounds read low; in the data active = % elongation below about 90%; note: some results filed as inactive read as strong as hits
Polio RdRp inh intensity – second read-out of Polio RdRp inh, no call of its own (marks repeat the call); % elongation; measured here: total intensity read-out; formula for this scale not given here;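 total fluorescence in place of polarization; lower means less elongation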
* = called active by the depositor; . = not tested or not shown; & = joins results of further samples.

SMILES	MenB inh	Mtb MbtI inh	Polio RdRp inh	Polio RdRp inh intensity
Clc1ccc(Nc2nc(NCCN3CCOCC3)nc(Nc3ccc(Cl)cc3)n2)cc1	-18	.	101	101
O=C(CCc1nc2ccccc2s1)NCc1cccs1	2	-3	.	.
COc1ccc(-c2noc(N3CCC(C(=O)NCCCN4CCCCC4)CC3)n2)cc1	19	-5	100	102
COc1ccc(S(=O)(=O)Nc2cncc(C(=O)NCc3ccc(C)cc3)c2)cc1	5	-13	102	107
C=CCSc1nnc(NC(=O)CSc2nc(C)cc(=O)[nH]2)s1	-17	26	88*	65*
CC(N=C1NS(=O)(=O)c2ccccc21)C(=O)OCc1ccccc1F (stereo not drawn)	-30	12	100	95
O=C(Cn1[nH]c(=O)c2ccccc2c1=O)OCN1C(=O)c2ccccc2C1=O	-8	-7	109	103
CCOC(=O)C1=C(C)N=C2SCCC(=O)N2C1/C=C/c1ccccc1 (stereo not drawn)	-13	-2	100	100
COc1ccccc1NC(=O)c1cccc(Cl)c1	-3	-3	104	101
CN(CC(=O)O)C(=O)Nc1ccc(Cl)cc1Cl	-20	-4	99	103
Fc1cccc(CN2CCN(C(=S)NCc3ccco3)CC2)c1	-25	24	101	103
COc1ccccc1CC(=O)Nc1ccc(-c2nc3ccccc3[nH]2)cc1	-2	101	101	105
Cc1ccc(C(C(=O)NC2CC2)N(C(=O)Cn2nnc(-c3cccs3)n2)c2cnc3ccccc3c2)o1 (stereo not drawn)	-2	8	103	102
CNC(=O)c1ccc(CN2CCc3ccccc3C2)cc1	27*	0	102	103
O=C(OCC(=O)N1CCNC1=O)C1=COCCO1	7	0	104	106
CCc1ccc(-c2cc(O)cc3sc(=O)oc23)cc1	-1	8	102	107
CCn1c(=O)c(=O)[nH]c2cc(C(=O)Nc3nc4c(s3)CCCC4)ccc21	13	20	.	.
CCOC(=O)c1ccc(N/N=C2/C(=O)C3(C)CCC2C3(C)C)cc1 (stereo not drawn)	-34	4	102	100
COC(=O)CCC(=O)Nc1cccc2ccccc12	10	3	102	103
Nc1cc(C(F)(F)F)ccc1-n1cncn1	.	-55	101	108
O=C(NS(=O)(=O)c1ccc(Br)cc1)c1ccccc1	10	13	104	99
Nc1c(C(=O)NCc2ccccn2)nnn1-c1ccc(OC(F)(F)F)cc1	15	6	103	100
NS(=O)(=O)c1ccc(CCNC(=O)NC2CC(=O)N(c3ccccc3)C2)cc1 (stereo not drawn)	-13	-11	100	107
COc1cccc2cc(C(=O)N3CCCCC3)c(=O)oc12	2	-5	100	99
CN(C)c1ccc(CN(C)C2CCCCC2)cc1	-16	-11	101	104
CCOc1ccccc1/C=c1\s/c(=C(/C#N)C(N)=O)n(CCN2CCOCC2)c1=O	-111	2	100	106
CCCCS(=O)(=O)Nc1cc(C(C)(C)C)ccc1O	-19	-8	44	238
Cc1[nH]c2ccccc2c1SCCNC(=O)c1cccc2ccccc12	-29	-2	101	103
Cc1cccc(NC(=O)c2ccccc2N)n1	-4	.	100	91
COCCNC(=O)c1cnc(N2CCCC2)nc1	-29	15	103	102
O=C(N1CCCCC1)C1(c2ccc(Cl)cc2)CCCC1	-8	.	109	111
O=C(NCCCN1CCCC1=O)c1ccc(N2CCCC2=O)cc1	-6	3	105	103
CSc1ccc(/C=N/n2nnnc2Nc2ccccc2)cc1	0	.	101	99
CN1C(=O)CSc2ccc(NC(=O)N3CCN(c4ccccn4)CC3)cc21	-10	15	103	104
CCn1c(C(=O)NCCC2=CCCCC2)cc2oc3ccccc3c21	-14	107	103	103
Cc1noc(C)c1COC(=O)c1ccccc1NC(=O)c1ccco1	-14	10	105	97
O=C(O)C(Cc1ccccc1)NS(=O)(=O)c1ccccc1 (stereo not drawn)	-20	14	102	100
CCOC(=O)CN1C(=O)/C(=C\c2ccc(OC)c(Br)c2)Sc2ccccc21	-62	18	99	105
CC1CN(c2ccc3nnc(-c4ccc(C(F)(F)F)cc4)n3n2)CC(C)O1 (stereo not drawn)	4	-7	105	104
Cc1ccc(-c2cn3c(n2)sc2cc(C(=O)NC(C)C)ccc23)cc1	-20	-56	106	101
O=c1[nH]cc(C(F)(F)F)c(=O)[nH]1	-10	-11	103	106
Cc1[nH]c2ccccc2c(=O)c1CO	-49	19	104	105
CC(=O)N1N=C(c2cccc(C)c2)OC1c1ccccc1C (stereo not drawn)	-12	-76	99	101
CCC(C)NC(=O)CSc1ncc(C#N)c(N)n1 (stereo not drawn)	27	33	104	101
CC1CCC(NC(=O)CCC(=O)Nc2nc(-c3cc4ccccc4oc3=O)cs2)CC1 (stereo not drawn)	11	-61	104	103
c1ccc(Cn2cc(CN3CCN(c4ccccc4)CC3)c3ccccc32)cc1	4	-2	102	102
COc1cccc(-c2cc(=O)c3ccc(O)cc3o2)c1	-21	.	108	113
Cc1cc(C)c2c(=O)n(CC(=O)Nc3ccc(Cl)cc3)sc2n1	-19	96	103	110
CN(C)CCn1c2c(c(SCC(=O)Nc3ccccc3)nc1=O)CCCC2	-9	-13	104	103
Nc1nc2ccc(N3CCOCC3)cc2s1	-7	.	103	109
O=C(NC1CC1)c1ccccc1I	12	-6	100	101
CC1CC(C)CN(C(=O)COC(=O)c2ccc(C#N)cc2)C1 (stereo not drawn)	0	7	.	.
CC(C)(C)S(=O)(=O)c1cnc(-c2ccc(Cl)cc2)nc1N	-26	0	101	101
CCCCc1c(C(=O)O)cccc1C(=O)O	27*	-4	102	100
O=C(O)/C=C/c1ccc2c(c1)OCO2	.	1	102	99
CCOC(=O)COc1c(/C=C2\SC(=S)N(Cc3ccco3)C2=O)cccc1OC	-25	39	102	106
CCc1ccccc1-n1c(SCC(=O)N2CCCC2)nc2[nH]ncc2c1=O	-6	-13	100	105
CCOc1ccc(CCNC(=O)C2CCN(c3nc(-c4ccc(OC)cc4)no3)CC2)cc1	12	-1	101	99
Cc1ccccc1NC(=O)c1ccc2nc(N3CCC(C)CC3)sc2c1	-8	-10	102	107
CCCCC/C=C\CC(O)/C=C/c1cccc(CC(O)CCCCO)n1 (stereo not drawn)	1	-11	101&100	104&103
(next part)
SMILES	MenB inh	Mtb MbtI inh	Polio RdRp inh	Polio RdRp inh intensity
CCOC(=O)c1c(C)[nH]c(C)c1S(=O)(=O)NCc1ccccc1C	-12	-20	99	101
CC(=O)Oc1ccc(N(C(C)=O)S(=O)(=O)c2ccc(Cl)cc2)cc1	-5	-1	103	105
Cn1cc(Cl)c(C(=O)N2CCc3ccccc3C2)n1	-19	.	99	110
CCN(Cc1ccncc1)C(=O)c1csc2ccccc12	-10	-12	102	103
C[C@@H]1CCC2[C@](C)(CO)[C@@H](O)CC[C@]2(C)[C@@]12CCC(CO)(CCO)O2 (stereo partly drawn)	-1	-6	100	105
Cc1ccccc1OCC(O)CN(C)C (stereo not drawn)	-4	-21	106	105
NC(=Nc1ccc(Cl)c(Cl)c1)c1ccccc1	-10	-4	112	113
Cc1cc(=O)n(CCc2ccccc2)c(O)c1C#N	-4	3	104	98
NNC(=O)c1nc(COc2ccccc2Cl)no1	-5	3	102	100
O=C(/C=C(\O)c1ccccc1)C(=O)Nc1cccc(F)c1	-10	-3	105	101
CCNC(=S)NN=C1CCC(C(C)(C)C)CC1 (stereo not drawn)	-34	10	109	112
CN1C=CC=C/C1=C1\SC(=S)N(C2CCCCC2)C1=O	-60	12	102	98
O=C(O)CCn1c2ccccc2c2ccccc21	-4	.	105	98
Cc1cc(C)nc(NS(=O)(=O)c2ccc(NC(=O)Cn3c(=O)oc4ccccc43)cc2)n1	9	8	102	103
CC1=CC(=C2N=C(c3ccccc3)OC2=O)C=C(C)O1	7	-4	95	122
Cc1ccc(NC(=O)C2OCCc3ccccc32)cc1 (stereo not drawn)	-5	-20	102	103
Cc1c(N(C)S(C)(=O)=O)c(=O)n(-c2ccccc2)n1C	-14	.	102	110
CCCn1c(=O)n(Cc2ccc(C#N)cc2)c2ccccc21	-14	-4	106	108
O=C(O)CCCC(=O)Nc1ccccc1-n1ccnc1	-3	.	106	107
C[C@@H]1C[C@@H]([C@@H](O)CC2CC(=O)NC(=O)C2)C(=O)[C@@H](C)C1	-14	.	104	102
Cc1cccc(NC(=O)CCC2=NS(=O)(=O)c3cc(Br)cnc3N2)c1	-10	7	105	106
COC(=O)Nc1nc2ccc(C(=O)c3ccccc3C(=O)OC(C)C)cc2[nH]1	-24	1	101	100
C/C(=N\NC(=O)C1CC1)c1ccc(C(C)(C)C)cc1	-5	-4	103	109
CCOC(=O)c1sc2nc(SCC(=O)Nc3ccc(OCC)cc3)n(N)c(=O)c2c1C	-15	2	102	102
Oc1ccccc1OCc1nc2ccccc2s1	.	52*	102	105
CCCSc1nnc(CN2CCOCC2)n1C	-35	-1	103	103
O=C(NCC1COc2ccccc2O1)c1ccc(=O)[nH]c1 (stereo not drawn)	-7	2	108	109
N#CCn1c(COC(=O)CN2C(=O)C3CC=CCC3C2=O)nc2ccccc2c1=O (stereo not drawn)	-36	-2	101	98
O=C1c2ccccc2C(=O)N1CCCC(=O)n1ccc2ccccc21	-15	3	99	98
CC1(C)Nc2ccccc2C(=O)N1c1ccccc1	43*	90	102	100
NC(=O)COc1ccc(C2C3=C(CCCC3=O)OC3=C2C(=O)CCC3)cc1Cl	-8	.	100	99
O=C1CN(c2ccccc2)C(=O)C1C(=O)NCc1ccccc1 (stereo not drawn)	10	127	100	101
COc1cc(CNC(C)(C)CO)cc(Br)c1OCc1ccc(F)cc1	-22	-12	100	101
COc1cc(/C=C/C(=O)C2CC2)cc(OC)c1OC	-48	7	101	102
CCCCN(C)C(=O)CN1C(=O)CCSc2ccccc21	-12	-5	103	103
CCc1cc(CN2CCOCC2)c(NC(=O)c2ccccc2)s1	5	7	104	103
O=C(NC1CCCCC1)n1c(=O)oc2cc(S(=O)(=O)N3CCCCC3)ccc21	-7	.	104	109
CC(c1ccccc1)N1CCC(=O)C2=C1CCCC2 (stereo not drawn)	-50	-3	102	103
CC(C)(C)Nc1n[nH]c(=S)s1	-3	73*	76*	85*
CC(C)NC(=O)CSc1nc2ccccc2c(=O)n1-c1ccccc1	-3	11	99	101
O=C(NCc1ccco1)c1cc2c(Cl)nc3ccccc3c2s1	12	6	99	102
CCN(CC)CCCOc1ccc(C)cc1C	4	-8	100	100
CCCC1=C(C(=O)OCC)C(c2ccccc2OC)C(C#N)=C(N)O1 (stereo not drawn)	-17	.	100	107
O=S(=O)(NC1CC2CCC1C2)c1ccc2c(c1)OCCO2 (stereo not drawn)	-42	-7	101	108
CCN(c1ccccc1)S(=O)(=O)c1ccc2[nH]cc(C(=O)NCc3ccccc3)c(=O)c2c1	-37	-3	103	103
CC(C)(C)c1cc2nc(C(F)(F)F)cc(N3CCN(C(=O)Nc4ccccc4)CC3)n2n1	-1	83	102	99
O=C1Nc2ccccc2NC1CC(=O)N1CCC2(CC1)OCCO2 (stereo not drawn)	-8	-14	99	101
CCCNC(=O)CSc1nnc(SCC(=O)NCCCn2nc(C)cc2C)s1	0	0	109	106
CC1CC(C)CN(S(=O)(=O)c2ccc3[nH]cc(C(=O)NCCC4=CCCCC4)c(=O)c3c2)C1 (stereo not drawn)	-6	-29	102	108
O=C(NCCC1CCCCN1S(=O)(=O)c1ccccc1)Nc1ccccc1 (stereo not drawn)	-19	-14	102	105
CCOC(=O)c1cnc2c(C)cc(C)cc2c1Nc1ccc2c(c1)OCCO2	-9	-4	103	96
Cc1cc(C)n(CCCNC(=O)c2ccc3ccccc3c2)n1	-25	71	103	110
Cc1ccc2c(c1)sc1ncc(NC(=O)c3ccccc3)c(=O)n12	-15	-10	102	103
Clc1ccc(CC2=NCCN2)cc1	-34	-5	100	95
O=C(CCC(=O)n1ncc2ccc(Cl)cc21)N1CCN(c2ccccc2)CC1	-3	5	101	104
O=C(NC1CCCCCC1)C(F)(F)F	-24	-22	101	102
O=C(CSc1nnc(-c2cccs2)n1-c1ccccc1)NCCC1=CCCCC1	-19	-150	100	105
CC(C)(C)c1oc(C(=O)O)cc1CN1CCCC1	1	.	101	96

The order is random; any-hit rate near 1.8%.
